GLA inh pH 4.5 = alpha-galactosidase A (human) inhibition, pH 4.5 | activity change, negative = inhibition, % at 105 µM | P06280 | purified enzyme, 4-MU-alpha-Gal fluorescence, pH 4.5 | 230,000 tested, under 10 active; inconclusive = small, poorly fitted or top-dose-only inhibition, or a rising curve; inactive = flat fitted curve, though single readings scatter; no compound was filed as active;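 note: 0% = full activity with enzyme and -100% = basal without enzyme; dose as in the result columns while the protocol names 77 µM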
Target sequence (P06280 whole entry, looked up): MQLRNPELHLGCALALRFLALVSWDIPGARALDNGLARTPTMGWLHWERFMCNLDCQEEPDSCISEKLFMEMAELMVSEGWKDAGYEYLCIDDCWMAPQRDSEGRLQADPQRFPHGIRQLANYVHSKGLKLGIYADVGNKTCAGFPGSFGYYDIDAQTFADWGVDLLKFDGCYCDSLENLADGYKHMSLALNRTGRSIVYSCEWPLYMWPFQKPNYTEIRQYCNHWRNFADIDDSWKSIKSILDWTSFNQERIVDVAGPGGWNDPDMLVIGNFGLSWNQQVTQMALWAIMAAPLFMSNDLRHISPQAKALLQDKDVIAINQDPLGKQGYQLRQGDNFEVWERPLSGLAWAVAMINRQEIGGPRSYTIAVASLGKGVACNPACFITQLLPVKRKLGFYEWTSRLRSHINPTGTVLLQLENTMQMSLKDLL
Rango-impB inh = Rango-importin beta binding inhibition; Potency, µM (highest dose often 92.2 µM), inactives show at the top dose inhibition of complex formation; actives 0.031% (n = 340,000); Q14974; Rango CFP/YFP FRET sensor + importin beta, 45 min; AID 540263; active = rising FRET ratio curve, often small or poorly fitted; inconclusive = mostly compound fluorescence or quenching in the first reads; inactive = flat curves in all reads;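 note: potency is the fitted concentration of half-maximal effect; 0% = DMSO wells and 100% = buffer wells lacking importin beta; nearly all actives have a fitted effect of over 15% in size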
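Inhibition scored from the CFP 486 nm/YFP 530 nm FRET ratio 45 min after adding 0.125 microM importin beta to 50 nM Rango biosensor preincubated 5 min with compound (room temperature, PBS with DTT, Tween-20, BSA). No-importin wells as positive control.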
Rango dissoc inh = inhibitors of RanGTP-induced Rango-importin beta complex dissociation; O95149+P62826; Biochemical FRET Rango-importin beta, RanGTP-induced dissociation; Potency, µM (doses to about 46.1 µM), inactives show top-dose activity change, negative = inhibition; actives 0.071% (n = 340,000); AID 540253; active means falling FRET ratio curve, often poorly fitted, with flat reads before Ran was added; inconclusive means other falling curves, or compound fluorescence or quenching; inactive means flat or rising ratio curve;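 note: potency is the fitted concentration of half-maximal effect; % of control where 0% means no effect; nearly all actives have a fitted effect of over 45% in size; -100% = wells without RanGTP and RCC1; the record marks most hits as doubtful in a second field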
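Recombinant Rango FRET biosensor (EYFP–snurportin 1 IBB–cerulean CFP10) at 0.1 uM premixed with 0.25 uM importin beta in PBS, 1 mM DTT, 0.02% Tween-20, 0.1% BSA. Compound added 5 min; RanGTP-RCC1 (0.6 uM Ran, 2 mM GTP, 0.2 uM RCC1) then triggers release, read at 45 min.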
miR-21 reporter = raises the signal of a miR-21 reporter | 340,000 tested, under 10 active | HeLa miR-21 FLuc reporter, luciferase, 48 h | Potency, µM (titrated, usually from 38.3 µM), for inactives: at the top dose reporter change, positive = more light; active = well fitted rising curve with a large enough effect; inconclusive = small, poorly fitted or top-dose-only effect; inactive = no such curve, though single readings can be large or run the other way;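 note: % of control where 0% means no effect; miR-21 action dims this reporter so a rising signal means less miR-21 action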
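HeLa cells stably expressing CMV-driven firefly luciferase with a downstream miR-21 binding sequence, endogenously expressing miR-21, were treated with titrations (up to about 40uM final) for 48 hours at 37 degree Celsius. Luciferase luminescence was read after lysis.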
* marks the source's active call; other numbers are inactive results; ? = inconclusive; / = no result given; & = joins results of further samples; [ ] = remark or other dose.

SMILES	GLA inh pH 4.5	Rango-impB inh	Rango dissoc inh	miR-21 reporter
Cc1ccc(SCC(=O)NCc2cccnc2)cc1	-10	2.1%	-8%	-2%
COc1ccc(CC(=O)NCc2n[nH]c(=S)n2-c2cccc(C)c2)cc1	-5	-1.3%	-7%	-5%
COc1ccc(S(=O)(=O)N2CCC(C(=O)NCCc3ccccc3)CC2)cc1	/	-1.2%	-4%	1%
CCOC(=O)c1c(C)[nH]c(C(=O)COC(=O)COc2ccc(OC)cc2)c1C	-1	2.4%	8%	-6%
Cc1ccc2oc3ccccc3c(=O)c2c1	/	3.8%	2%	/
C[N+]1(CCCOC(=O)C2(c3ccccc3)CCCC2)CCOCC1	1	0.6%	0%	-9%
Cc1ccc(NC(=O)C(C)Sc2nnc(C)n2CC2CCCO2)cc1 (stereo unspecified)	/	-0.7%	1%	-6%
O=C(Cn1c(=O)n(CCCC(=O)NC2CCCC2)c(=O)c2ccccc21)NCCC1=CCCCC1	-12	4.0%	-5%	-4%
Cc1ccc(OCCCCCCN2CCNCC2)c(Br)c1	/	3.8%	-6%	/
Oc1cc(-n2cccn2)c(O)cc1-n1cccn1	-27	?	55%	1%
COc1ccc(N(C(=O)c2snc(C(N)=O)c2N)C(C(=O)NC2CCCC2)c2cccs2)cc1OC (stereo unspecified)	/	1.1%	21%	-2%
Cc1cc(NS(=O)(=O)c2cccs2)no1	-12	0.8%	-8%	-5%
COc1ccc(/C=C2\SC(=S)N(N3C(=O)CCC3=O)C2=O)cc1O	-4	?	-12%	1%
COC(=O)c1cc2oc3ccccc3c2n1Cc1ccccn1	4	-1.0%	4%	-8%
Cc1ccccc1CC1CCN(CCCNC(=O)Nc2ccccc2)CC1	/	?	-9%	0%
O=C(c1ccccc1)N(Cc1cccc(Br)c1)C1CCS(=O)(=O)C1 (stereo unspecified)	/	-0.6%	16%	-4%
O=C(CSc1ccc(-c2ccco2)nn1)Nc1ccc(F)cc1	/	3.0%	-3%	6%
Cn1cccc1-c1nc2ccc([N+](=O)[O-])cc2[nH]1	/	?	-4%	-65%
COCCOC(=O)C1=C(C)NC(C)=C(C(=O)OC(C)C)C1c1cccc([N+](=O)[O-])c1 (stereo unspecified)	-4&-12&3&-11	0.3%	-5%	0%&15%
COc1ccc2c(c1)c(CC(=O)OCC(N)=O)c(C)n2C(=O)c1ccc(Cl)cc1	-2	0.3%	13%	4%
CSc1ncccc1C(=O)Nc1ccc2nc(C)sc2c1	2	2.8%	49%	-59%
N#Cc1nc(-c2ccc(F)cc2)oc1N1CCC(C(N)=O)CC1	/	0.7%	-5%	-8%
Cc1cccc(NC(=S)NC(=O)CCc2ccccc2)c1C	-4	4.9%	-6%	-10%
CC1CCCCC12NC(=O)N(CC(=O)Nc1cccc(S(=O)(=O)N3CCCCC3)c1)C2=O (stereo unspecified)	/	-1.7%	2%	/
CCOC(=O)Nc1ccc(NC(=O)OCC)cc1	8	-0.6%	-2%	-24%
Brc1csc(C=Nc2ccc3c(c2)OCCOCCOCCOCCO3)c1	1	0.1%	-2%	-7%
CCn1c(SCC(=O)N(C)c2ccccc2)nc2c([nH]c3ccccc32)c1=O	/	1.2%	-1%	6%
O=C(NCCCNc1ccc(C(F)(F)F)cc1[N+](=O)[O-])c1ccc(Cl)cc1	2	-1.3%	-4%	-4%
CC(=O)Nc1ccc(C=NNC(=O)c2ccc(NS(=O)(=O)c3cccs3)cc2)cc1	/	-3.7%	9%	/
Cc1cccc(NC(=O)c2ccc3c(Cl)c4c(nc3c2)CCCC4)n1	-17	2.2%	0%	-38%
CCOc1cc(S(=O)(=O)NC2CCCCCC2)ccc1F	-26	1.7%	1%	-2%
Clc1cccc(CNc2nnnn2-c2ccccc2)c1	-12	-2.5%	-16%	17%
CCOC(=O)C(CC)Sc1nc2c(cnn2-c2ccccc2)c(=O)[nH]1 (stereo unspecified)	-6	-1.2%	26%	-16%
COc1cc(OC)cc(-n2c3nc4ccccc4nc3c3c(=O)n(CC4CCCO4)cnc32)c1 (stereo unspecified)	0	0.1%	-19%	3%
O=C1NC2NC(=O)N(C(Cc3ccccc3)C(=O)O)C2N1 (stereo unspecified)	8	-1.4%	2%	-1%
Cc1ccc(OCC(=O)Nc2cc(C(C)(C)C)on2)cc1C	/	2.4%	17%	-5%
COc1ccccc1C(=O)Nc1nnc(-c2ccc(F)cc2)s1	/	0.5%	0%	-27%
CCOc1cccc(C2c3c(oc4ccccc4c3=O)C(=O)N2c2ccccn2)c1 (stereo unspecified)	-9	/	/	-7%
CCOc1ccccc1-n1c(SCC(=O)N2CCOCC2)nnc1-c1ccccn1	4	2.2%	-2%	6%
COc1cc([N+](=O)[O-])ccc1N1C(=O)CC(Sc2nccc(C)n2)C1=O (stereo unspecified)	/	-2.2%	-10%	1%
CC(=O)c1ccc(S(=O)(=O)N2CCN(C(=O)c3ccccc3Cc3ccccc3)CC2)cc1	/	0.1%	-17%	/
CN(Cc1cccs1)C(=O)c1ccc(S(=O)(=O)N2CCCCC2)cc1	-4	2.1%	12%	-4%
CC(C)N1C(=O)CCC1C(=O)NCc1ccco1 (stereo unspecified)	-7[21.1 µM]	0.0%	0%	0%
CN(Cc1ccc(C#CCCO)cc1)CC1CCCN(CCc2ccc(Cl)cc2)C1 (stereo unspecified)	/	-2.2%	0%	3%
CC1C=CCC2C(=O)N(c3cccc(C(=O)Nc4ccc(Br)cc4)c3)C(=O)C12 (stereo unspecified)	/	1.3%	5%	-14%
Clc1ccc(OCCn2cnc3ccccc32)cc1	0	-2.9%	-6%	-25%
O=C(O)c1ccc(NS(=O)(=O)c2ccc(N3CCCC3)c([N+](=O)[O-])c2)cc1	/	-0.7%	-12%	-1%
CC1CCCCN1C(=S)NCc1ccccc1 (stereo unspecified)	-7	-7.3%	2%	3%
CC(C)NS(=O)(=O)c1cc(F)ccc1CN1C(=O)c2cccnc2C1=O	/	-1.0%	-7%	-5%
CCN(C(=O)COC(=O)c1ccccc1O)c1cccc2ccccc12	/	-1.1%	1%	/
CCC1(c2ccc(F)cc2)NC(=O)N(CC(=O)N2CCc3ccccc32)C1=O (stereo unspecified)	/	-1.0%	5%	/
O=C1CCCCN1CCCC(=O)N1CCCC(Nc2ccc(F)c(F)c2)C1 (stereo unspecified)	/	0.3%	1%	0%
NC(=O)c1ncn([C@@H]2O[C@H](CNCc3cccc4c3sc3ccccc34)[C@@H](O)[C@H]2O)n1	/	-1.9%	7%	/
O=C(O)c1ccc(C=C(c2nc3ccccc3s2)c2nc3ccccc3s2)cc1	-6	?	?	-7%
CCOC(=O)c1cc(S(=O)(=O)Nc2ccc(OC)cc2OC)cn1C	/	3.7%	22%	-1%
O=C(COc1ccccc1[N+](=O)[O-])Nc1cccc(S(=O)(=O)NC2=NCCCCC2)c1	/	-3.5%	-22%	/
CN(C)S(=O)(=O)c1cc(C(=O)OCCn2cnc3c2c(=O)n(C)c(=O)n3C)ccc1Cl	5	-1.7%	8%	0%
S=C(NNC(=S)NC1CC2CCC1C2)NC1CC2C=CC1C2 (stereo unspecified)	-2	-1.2%	-4%	-12%
CC(=O)Nc1nnc(SCC(=O)NCCOc2ccccc2)s1	-4	1.8%	1%	-4%
CN(C)CCNC(=O)CNC(=S)N(Cc1ccccc1)Cc1ccccc1F	0	-1.1%	-2%	5%

Reformatted: 6 of the compounds above.
| structure | GLA inh pH 4.5 | Rango-impB inh | Rango dissoc inh | miR-21 reporter |
| --- | --- | --- | --- | --- |
| O=C(O)c1ccc(C=C(c2nc3ccccc3s2)c2nc3ccccc3s2)cc1 | -6 | ? | ? | -7% |
| CCOC(=O)c1cc(S(=O)(=O)Nc2ccc(OC)cc2OC)cn1C | / | 3.7% | 22% | -1% |
| O=C(COc1ccccc1[N+](=O)[O-])Nc1cccc(S(=O)(=O)NC2=NCCCCC2)c1 | / | -3.5% | -22% | / |
| CN(C)S(=O)(=O)c1cc(C(=O)OCCn2cnc3c2c(=O)n(C)c(=O)n3C)ccc1Cl | 5 | -1.7% | 8% | 0% |
| S=C(NNC(=S)NC1CC2CCC1C2)NC1CC2C=CC1C2 (stereo unspecified) | -2 | -1.2% | -4% | -12% |
| CC(=O)Nc1nnc(SCC(=O)NCCOc2ccccc2)s1 | -4 | 1.8% | 1% | -4% |

Carrying on:
SMILES	GLA inh pH 4.5	Rango-impB inh	Rango dissoc inh	miR-21 reporter
COC(=O)c1ccc(/C=N/NC(=S)NCCN2CCOCC2)cc1	6	3.8%	-11%	3%
C[C@H](NC(=O)[C@@H]1Cc2ccccc2CN1)C(=O)NC1CCCC1	/	-0.9%	-3%	-2%
CCC(C)Sc1ccc([C@@H]2[C@H]3C(=O)N(CC)C(=O)[C@H]3[C@]3(C(=O)OC)CCCN23)cc1OC (stereo partly specified)	/	0.2%	-13%	/
O=C(O)c1c2c(nc3ccccc13)/C(=C/c1cccc([N+](=O)[O-])c1)CCC2	/	-2.2%	-3%	-43%
O=C(NCc1ccco1)c1cccc2c1C(=O)c1ccc(N3CCC(Cc4ccccc4)CC3)cc1S2(=O)=O	/	?	?	/
Cc1cc(/C=N/n2c(COc3ccccc3)nc3ccccc3c2=O)c(O)c([N+](=O)[O-])c1	-6	0.5%	-7%	2%
CN(C)S(=O)(=O)c1ccc(N=Cc2c(C(F)(F)F)[nH][nH]c2=O)cc1	-8	2.5%	1%	3%
COc1ccc(CN2CCN(Cc3c[nH]c4ccccc34)CC2CCO)c(F)c1 (stereo unspecified)	/	?	-8%	0%
COc1cccc(CN=C2Nc3ccccc3CS2)c1	-3	2.5%	6%	-69%
COc1cccc(N(CC(=O)N2CCc3ccccc3C2)S(C)(=O)=O)c1	-4	0.6%	-23%	-3%
CN(C)c1cc(-c2ccc(C#N)cc2)oc(=O)c1Cl	6	1.0%	5%	1%
Cn1c(/N=C/c2cccs2)nc2ccccc21	1	4.7%	-7%	0%
Cc1ccc(NC(=O)NNC(=O)C2CCN(Cc3ccc(F)cc3Cl)CC2)cc1	2	0.5%	-5%	-3%
Oc1c(-c2cc(-c3ccco3)[nH]n2)ccc2ccccc12	-7	5.4%	12%	-51%
CCCCc1nc(C(N)=O)c2[nH]c(=O)n(-c3ccc(OC)cc3OC)c2n1	/	-1.8%	-4%	-9%
Cc1nn(CCCC(=O)NCCc2ccccc2)c(C)c1[N+](=O)[O-]	-2	-3.2%	28%	-8%
Cc1cccc(CN2CCN(C(=O)CCc3nnc(C4CCCCC4)o3)CC2)c1	-1	-3.4%	-10%	-16%
COc1ccc(-c2nc3ncccn3c2Nc2ccccc2)cc1	-6	?	?	-44%
COc1cc(OC)cc(C(=O)Oc2c(CN3CCOCC3)cc(Cl)c3cccnc23)c1	-21	-0.8%	-1%	29%
O=C(Nc1ccc(S(=O)(=O)N2CCCC2)cc1)c1ccc(CN2CCc3ccccc3C2)cc1	7	1.4%	28%	?
CCOc1ccc(C(=O)N(CN2CCCC2=O)c2ccccc2)cc1	-1	1.0%	0%	-8%
Clc1ccccc1OCc1nnc(-c2ccccc2Br)o1	-4	0.1%	6%	-62%
CCCN(Cc1cc2cc(C)ccc2[nH]c1=O)S(C)(=O)=O	0	?	-11%	-5%
O=C1CCCCCN1CP(=O)(O)CN1CCOCC1	-10	/	/	-6%

Another view of part of the listing above.
GLA inh pH 4.5 | Rango-impB inh | Rango dissoc inh | miR-21 reporter | canonical_smiles
-6 | ? | ? | -44% | COc1ccc(-c2nc3ncccn3c2Nc2ccccc2)cc1
/ | ? | -8% | 0% | COc1ccc(CN2CCN(Cc3c[nH]c4ccccc34)CC2CCO)c(F)c1 (stereo unspecified)
-6 | 0.5% | -7% | 2% | Cc1cc(/C=N/n2c(COc3ccccc3)nc3ccccc3c2=O)c(O)c([N+](=O)[O-])c1

A portion of the library; the hit share may differ from the screen's.
